Bioassay records (PubChem BioAssay)
A488 fluor = compound autofluorescence in A488 spectral region; compound autofluorescence, A488 spectral region, dye equivalency; hits give high values; max dye equivalency, M; hit rate 0.1% among 59,000; active = above 10 nM dye equivalent; inconclusive = 1 to 10 nM; inactive = 1 nM or less; about half of its hits are not listed in these tables;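 also: highest value over a series up to 38 µM; compound alone in buffer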
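Autofluorescence read at ex 480/em 540 nm after 15 min RT in 100 mM Tris pH 8.0; compound signal normalized to A488 standard series on each plate, reported as dye-equivalent concentration at each test concentration.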
AID923 = qHTS Assay for Allosteric/Competitive Inhibitors of Caspase-1: Spectroscopic Profiling in AFC Spectral Region; compound fluorescence, AFC spectral region (405/520 nm); almost no hit is shown here; Potency, µM (doses to about 57.5 µM), inactives show at the top dose fluorescence increase, actives largely listed as activators; hit rate 1.1% among 75,000; AID 923, 2007; active = well fitted activation curve with a large enough effect; inconclusive = small, poorly fitted or top-dose-only effect;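 also: potency is read from the fitted curve at half-maximal effect; 0% is about no effect; scaled to a free AFC standard on each plate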
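Baseline compound fluorescence (AFC region, 405 nm ex/520 nm em) taken from the intercept of kinetic reads with 50 nM caspase-1 and 5 uM Ac-WEHD-AFC; normalized to an on-plate AFC standard curve; compounds titrated up to 57 uM.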
Resorufin autofl = compounds fluorescent in resorufin spectral region; Compound fluorescence, resorufin region 547/598 nm, buffer; hits give high values; max dye-equivalent concentration, M; hit rate 0.04% among 59,000; AID 588; active = above 10 nM dye equivalent; inconclusive = 1 to 10 nM; inactive = 1 nM or less; a few of its hits are not listed in these tables; also: highest value over a series up to 38 µM
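Tris 100 mM pH 8.0; compound added, 15 min RT; CCD imager read, ex 547 nm/em 598 nm; signal normalized to resorufin standard curve (six concentrations per plate) as dye-equivalent concentration.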
A647 fluor = compound autofluorescence in A647 spectral region. Compound fluorescence, A647 channel (570/671 nm), Tris buffer. max dye-equivalent concentration, M. 59,000 tested, under 10 active; active means above 1 µM dye equivalent; inconclusive means 0.1 to 1 µM; inactive means 0.1 µM or less;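 also: values scaled relative to a standard on each plate; highest value over a series up to 38 µM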
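Tris 100 mM pH 8.0; cpd + A647 stds pin-transferred; 15 min RT; CCD imager, ex 570/em 671. Output = A647-equivalent conc. per cpd conc.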
TSHR ag = activates the human thyroid stimulating hormone receptor; Potency, µM (titrated, usually from 57.1 µM), inactives show at the top dose activation, hits mostly activators; hit rate 0.48% among 73,000; HEK293-CNG-TSHR cells (CNG channel as cAMP sensor), membrane potential dye, cAMP; P16473; active = well fitted activation curve of enough size with the parental cells flat; inconclusive = any curve in the parental cells; inactive = parental cells flat and receptor cells flat or falling; also: potency is read from the fitted curve at half-maximal effect; % of control where 0% means no effect; weak receptor curves with flat parental cells got no call and are not listed
Target sequence (P16473 whole entry, looked up): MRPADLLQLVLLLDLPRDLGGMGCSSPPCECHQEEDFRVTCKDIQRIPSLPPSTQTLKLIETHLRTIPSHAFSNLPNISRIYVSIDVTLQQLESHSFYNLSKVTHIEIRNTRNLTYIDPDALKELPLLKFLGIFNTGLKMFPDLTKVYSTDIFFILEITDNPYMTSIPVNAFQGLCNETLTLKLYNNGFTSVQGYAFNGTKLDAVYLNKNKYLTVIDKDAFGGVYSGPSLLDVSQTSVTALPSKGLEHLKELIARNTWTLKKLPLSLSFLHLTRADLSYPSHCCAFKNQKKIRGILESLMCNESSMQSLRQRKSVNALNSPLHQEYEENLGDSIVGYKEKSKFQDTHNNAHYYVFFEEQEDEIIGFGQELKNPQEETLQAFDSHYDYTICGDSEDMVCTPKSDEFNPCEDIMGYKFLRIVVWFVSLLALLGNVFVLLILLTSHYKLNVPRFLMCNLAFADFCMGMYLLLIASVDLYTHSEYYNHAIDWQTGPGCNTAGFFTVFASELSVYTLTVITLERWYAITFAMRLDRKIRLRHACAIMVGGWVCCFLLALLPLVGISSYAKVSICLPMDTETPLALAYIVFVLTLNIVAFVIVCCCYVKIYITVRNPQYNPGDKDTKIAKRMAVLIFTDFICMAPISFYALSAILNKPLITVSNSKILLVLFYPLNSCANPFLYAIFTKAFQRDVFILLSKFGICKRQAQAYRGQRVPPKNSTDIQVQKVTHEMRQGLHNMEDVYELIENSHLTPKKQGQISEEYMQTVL
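HEK 293 cells stably expressing TSHR and a modified CNG channel, with CNG-only parental cells as counterscreen, were preloaded 60 min at room temperature with membrane potential dye containing 100 uM RO 20-1724. Compound exposure was 30 min, and depolarization was read as fluorescence at 590 nm.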
Starred values were filed as active, the others as inactive; i = inactive; ? = inconclusive; . = not tested or not shown; & = joins results of further samples; [ ] = remark or other dose. The list is partial; the hit share may differ from the screen's.

SMILES	A488 fluor	AID923	Resorufin autofl	A647 fluor	TSHR ag
O=C(NCC1CCCO1)c1cccc(Br)c1 (configuration not stated)	i	-0.8%	i	2.9e-08	-6.0%
Nn1c(SCC(=O)N2CCCCC2)nnc1-c1ccncc1	i	0.0%	i	3.5e-09	-16.6%
CCc1ccc(C=NC23CN4CN(CN(C4)C2)C3)s1	.	-0.1%	.	.	-2.1%
COc1cccc([C@@H]2Oc3ccc(OC)cc3C(=O)[C@H]2O)c1	.	-2.4%[11.5 µM]	.	.	11.0%[11.4 µM]
COc1ccc(CNc2nc3c(c(=O)n(Cc4ccc(F)cc4)c(=O)n3C)n2C)cc1	i	2.5%	i	6.9e-09	-30.1%[inhibitor]
COC(=O)c1ccccc1NC(=O)N1CCN(S(=O)(=O)c2ccc(Cl)cc2)CC1	i	-1.4%	i	3.59e-08	18.4%
CCc1ccc(NC(=O)CSc2nnc(-c3cnccn3)n2Cc2ccco2)cc1	i	5.3%	i	6.8e-09	11.9%
Cc1ccc(-c2nn3c(-c4ccco4)nnc3c3ccccc23)cc1S(=O)(=O)N1CCOCC1	i	-0.6%	i	2.68e-08	?
Cn1cnc2c1c(=O)n(Cc1ccc(F)cc1Cl)c(=O)n2C	i	-0.2%	i	1e-09	-4.8%
COc1ccc(NC(=O)c2cc(-c3ccccc3OC)on2)cc1	i	-1.1%	i	1e-09	?
COc1cc(NC(=O)c2cccs2)ccc1NC(=O)c1ccco1	i	-1.1%	i	6.7e-09	.
CN(C)C(=O)NCc1ccc(S(N)(=O)=O)cc1	i	1.4%	i	1e-09	.
O=C(Cn1c(NCCO)nc2ccccc21)c1ccccc1	.	1.0%	.	.	8.0%
COC(=O)CC1=C(C(=O)OC)C(c2ccc3c(c2Cl)OCO3)C(C#N)=C(N)O1 (configuration not stated)	i	.	i	3.5e-08	.
c1cn(CCCNc2ncnc3nc[nH]c23)cn1	.	3.0%	.	.	?
CSc1ccccc1NC(=O)c1ccncc1	i	-1.0%	i	1e-09	-5.2%
O=C(c1scc2c1CCCC2)N1CCCCC1	i	-1.0%	i	1.97e-08	4.0%[11.4 µM]
Cc1ccc(OCc2ccc(C(=O)Nc3nccs3)o2)cc1	i	-0.6%	i	1.96e-08	-0.8%
Cn1nnnc1SCC(=O)NC1CCCCC1	i	-0.5%	i	1e-09	7.1%
COc1cccc(C2C(C(=O)Nc3ccc(C)cc3C)=C(C)Nc3ncnn32)c1OC (configuration not stated)	i	0.7%	i	1.8e-09	.
CCOC(=O)c1ccc(NC(=O)CSc2nc3c(c(=O)n2-c2ccccc2OC)SCC3)cc1	.	-1.8%	.	.	8.2%
CC(C)C(OC(=O)c1cccs1)C(=O)NCc1cccs1 (configuration not stated)	i	-2.4%	i	1e-09	?
O=C(c1cccc(F)c1)N1CCC2(CC1)CCN(C(c1ccccc1)c1ccccc1)CC2	i	0.6%	i	1e-09	?
CCOC(=O)N1CCC2(CC1)CC(=O)c1cc(O)ccc1O2	.	0.7%	.	.	8.9%
CCCN1C(=O)C(NC(=O)c2ccncc2)(C(F)(F)F)C2=C1CC(C)(C)CC2=O (configuration not stated)	i	1.5%	i	2.95e-08	0.2%

(more compounds)
SMILES	A488 fluor	AID923	Resorufin autofl	A647 fluor	TSHR ag
COc1c(O)ccc2c1CN1CCc3cc4c(cc3[C@@H]1C2)OCO4	i	3.7%[11.5 µM]	i	3.97e-08	-0.6%[11.4 µM]
CN(C)c1ccnc(SCc2ccccc2Cl)c1C#N	.	-0.1%	.	.	?
Cc1oc(-c2ccccc2F)nc1CS(=O)CC(=O)NCc1cccs1 (configuration not stated)	.	3.0%	.	.	?
Cc1ccc(Cn2c(N3CCCCCC3)nc3c2c(=O)[nH]c(=O)n3C)cc1	i	1.0%	i	1.79e-08	?
Cc1nc2ccc3nc(NC(=O)c4ccc5c(c4)OCCO5)sc3c2s1	i	1.2%	i	1.4e-09	-5.4%
COc1ccc2c(c1OC)C(=O)O[C@@H]2[C@H]1c2c(cc3c(c2OC)OCO3)CCN1C	i	-3.3%	i	4.93e-08	19.0%
Cc1onc(-c2c(F)cccc2Cl)c1C(=O)NCc1cccs1	i	-1.8%	i	1e-09	4.5%
CN(C)c1ccc(Nc2nc(-c3cccnc3)cs2)cc1	.	0.4%	.	.	10.3%[11.4 µM]
O=C(O)c1ccc(CSc2nnc(-c3ccco3)o2)cc1	.	-1.4%	.	.	3.4%
c1cn(CC2(Cn3ccnc3)COC2)cn1	i	2.0%	i	1.99e-08	7.0%
Cc1cc(Cl)ccc1OCC(=O)N1CC(C)CC(C)C1 (configuration not stated)	i	1.5%	i	5.86e-08	48.9%
Cc1nc2ccc(C(=O)N3CCSCC3)cc2s1	i	-2.3%	i	1.89e-08	1.9%
CC(C)c1ccc2c(c1)c(SC(C)(C)C)c(CC(C)(C)C(=O)O)n2Cc1ccc(Cl)cc1	i	-9.1%&-8.9%	i	2.3e-09	?
Cc1c(NC(=O)NCc2ccccc2)c(=O)n(-c2ccccc2)n1C	i	-0.3%	i	7.8e-09	24.8%
CN[C@@H]1NC(=O)c2ccccc2N1Cc1ccc(F)cc1	i	1.2%[11.5 µM]	i	2.22e-08	0.1%[11.4 µM]
Cc1noc(C)c1S(=O)(=O)N1CCCC(C(=O)N2CCc3ccccc3C2)C1 (configuration not stated)	.	-3.0%	.	.	-14.7%
CCOC(=O)C1[C@H]2C(=O)N(CCCOC)C[C@]23C=C[C@H]1O3 (some centres not stated)	i	0.0%	i	1e-09	-2.1%
Cc1nnc2c(NC(C)C)nc3ccccc3n12	i	.	i	8.4e-09	.
Cc1ccc(C)n1CCN1CCN(C(=O)c2ccco2)CC1	i	-0.5%	i	4.28e-08	1.4%[11.4 µM]
CCOC(=O)c1nnn(CC(=O)Nc2ccccc2OC)c1C(=O)OCC	i	-0.3%	i	3.8e-09	-7.9%
CCOC(=O)N1CCN(C(=O)c2cc(C)no2)CC1	.	2.6%	.	.	-1.5%
CCCCOC(=O)Nc1nc(C)c(C(=O)OCC)s1	.	0.4%	.	.	?
O=C(/C(=N\O)n1cncn1)c1ccc(Br)cc1Br	.	0.1%	.	.	20.3%
COc1ccc(CCNC[C@H](O)c2ccc(O)cc2)cc1OC	i	-1.9%	i	4.6e-09	?
CC(/C(O)=C(\C#N)c1nc2ccccc2n1C)N1C(=O)c2ccccc2C1=O (configuration not stated)	i	1.2%	i	1e-09	1.0%

Remaining list, next part
SMILES	A488 fluor	AID923	Resorufin autofl	A647 fluor	TSHR ag
Cc1cc(C)cc(-n2c3nc4ccccc4nc3c3c(=O)n(Cc4ccco4)cnc32)c1	i	.	i	3.81e-08	.
CC(CC(=O)O)(CC(=O)O)c1ccccc1	i	0.7%[11.5 µM]	i	3.85e-08	0.3%[11.4 µM]
O=C1CC(N2CCN(c3ccccc3F)CC2)C(=O)N1c1ccc2c(c1)OCCO2 (configuration not stated)	i	-1.1%	i	4.28e-08	-5.4%
O=C1c2ccccc2C(=O)N1CCSc1nnc(-c2ccco2)n1Cc1ccccc1	i	-0.9%	i	4.91e-08	?
CCCc1nc2ccccc2c(=O)n1-c1c(C)n(C)n(-c2ccccc2)c1=O	i	0.9%	i	4.62e-08	2.0%
N#CNC(N)=Nc1ccc(Cl)cc1	i	-1.8%[11.5 µM]	i	1e-09	-4.2%[11.4 µM]
COc1ccccc1N1CCN(CC(O)COc2ccc(S(=O)(=O)N3CCOCC3)cc2)CC1 (configuration not stated)	i	-6.3%	i	5.3e-09	13.9%
COc1ccc(S(=O)(=O)NC2CC(C)(C)NC(C)(C)C2)c(C)c1C	i	-0.1%	i	1e-09	.
COc1cccc(C2C(C(=O)NCc3ccccc3)=C(C)Nc3ncnn32)c1 (configuration not stated)	i	-1.5%	i	1e-09	5.8%
Cc1oc(-c2ccccc2F)nc1CS(=O)(=O)CC(=O)NCCCc1ccccc1	.	-1.6%	.	.	?
CCc1c(C)nc(N)n2c(SCC(=O)N3CCN(c4ccccc4)CC3)nnc12	i	0.1%	i	1.54e-08	-2.7%
Cc1nn(C)c(C)c1S(=O)(=O)N1CCCC(C(=O)NC2CCCCCC2)C1 (configuration not stated)	.	-1.0%	.	.	?
CC(C)(C)c1[nH]nc2c1C(c1ccccc1OC(=O)N1CCOCC1)C(C#N)=C(N)O2 (configuration not stated)	i	1.8%	i	2.9e-09	-4.0%
CCSc1nnc(NC(=O)c2cccc(OCc3c(C)noc3C)c2)s1	i	1.9%	i	1.35e-08	.
Cc1cc(S(=O)(=O)Nc2cccnc2)c(C)s1	i	0.9%	i	1e-09	-2.3%
Cc1cc(NC(=O)Cn2cc(C(F)(F)F)cc(Cl)c2=O)no1	i	-0.6%	i	1.01e-08	-17.8%
COC(=O)c1ccc(OC(=O)c2ccc(OCc3c(C)noc3C)c(OC)c2)cc1	i	2.6%	i	3.1e-09	-2.9%
CC(=O)c1cccc(NC(=O)Nc2cccs2)c1	.	4.1%	.	.	24.8%
CC(=O)N1CCN(c2cccc(C)c2C)CC1	.	-1.1%	.	.	16.6%[11.4 µM]
COc1ccc(OC(C)C(=O)N2CCc3ccccc3C2)cc1 (configuration not stated)	i	1.2%	i	1.01e-08	15.5%
CCP(=O)(c1ccccc1)C(C)(C)O (configuration not stated)	.	-1.5%	.	.	?
CSc1nccn1CC(=O)Nc1ccc(F)cc1	i	0.6%	i	4.1e-09	0.9%
COC(=O)C/C=C\[C@@H](C)[C@@H]1C=C[C@H](OC(C)=O)[C@H](COC(C)=O)O1	.	0.2%[11.5 µM]	.	.	13.6%[11.4 µM]
CCNC(=O)CC1C(=O)N(c2cccc(OC)c2)C(=O)N1CCOC (configuration not stated)	i	-6.1%	i	1e-09	-12.0%
COc1ccc(OC)c(S(=O)(=O)N2CCC(C(=O)Nc3cccc(C)c3C)CC2)c1	i	0.8%	i	1e-09	8.6%

More structures:
SMILES	A488 fluor	AID923	Resorufin autofl	A647 fluor	TSHR ag
O=C(O)NCC1CCCCC1 (tested in a mixture with another compound)	i	0.1%[11.5 µM]	i	1e-09	-1.1%[11.4 µM]
Cc1csc(SCC(=O)Nc2ccc(Cl)cn2)n1	i	4.7%	i	7.3e-09	-0.5%
CC1(C)OC(=O)C(=CNCC(=O)NCC(=O)O)C(=O)O1	i	3.9%	i	1e-09	-0.3%
COc1ccc(NC(=O)Cn2nnc(-c3ccccc3NC(=O)c3cccs3)n2)cc1	i	0.1%	i	4.66e-08	25.1µM*
CCCCC(=O)NCCc1cc2c(OC)ccc(OC)c2[nH]c1=O	i	6.4%	i	1.5e-09	-6.4%
CCOc1ccc(S(=O)(=O)N2CCN(c3ccc(C)cc3C)CC2)cc1	.	-0.7%	.	.	19.6%
Oc1ccccc1C1=Nc2ncnn2C(c2ccc(F)cc2)C1 (configuration not stated)	i	5.4%	i	1e-09	.
CC(=O)N[C@@H](CC(=O)O)C(=O)O	i	-0.8%[25.7 µM]	i	4.7e-09	-12.8%[25.6 µM]
Cc1cccc2sc(NC(=O)CCNS(=O)(=O)c3cccc4nonc34)nc12	i	-0.7%	i	1.6e-09	-20.5%
